From PubChem BioAssay
H5N1 CPE: MDCK cell protection from H5N1 avian flu; cytopathic effect, luminescence, 72 h; stronger effect = higher value; no value below 0 was filed and about half of the inactive calls have no number; reference of the scale not given here; inhibition, % at 50 µM; hit rate 0.07% among 96,000; AID 740; in the data active = inhibition above about 25%
An asterisk follows results filed as active; i = inactive.

Structure	H5N1 CPE
Cc1ccc(CNC(=O)c2ccc(NC(=O)CCS(=O)(=O)c3cccs3)cc2)cc1	i
O=C(NCc1ccccc1Cl)c1ccc2c(=O)n(CCCN3CCCC3=O)c(=S)[nH]c2c1	0.1
CC(C)C(=O)OCCN=C1NS(=O)(=O)c2ccccc21	0.5
COc1ccc(OCC(=O)N2CCOCC2)cc1	0.2
Cc1cc(OCC(O)CN(CCO)CCO)ccc1Cl (stereo unspecified)	0.2
CC(=O)CC(C)=NCCN=C(C)CC(C)=O	0.2
CCCC(=O)Nc1ccc2oc(-c3ccncc3)nc2c1	i
Cc1cc(/C=C(\C#N)C(=O)NCc2cccs2)c(C)n1-c1ccccc1F	0.1
O=C(CNC(=O)C1CCCCC1)Nc1ccc(Cl)cc1	i
COc1ccc(N2CCN(CCCNC(=O)Nc3ccccc3)CC2)cc1	i
CC1CN(S(=O)(=O)c2cccc(C(=O)NCc3ccc4c(c3)OCO4)c2)CC(C)O1 (stereo unspecified)	1.6
CCC1CCc2[nH]nc(C(=O)O)c2C1 (stereo unspecified)	0.2
CCOC(=O)CSC1=C(C#N)C(=O)NC(c2ccc(OC)cc2)S1 (stereo unspecified)	1.4
COc1ccc(Nc2nc(N)nc(CN3CCC(Cc4ccccc4)CC3)n2)cc1	i
O=S1(=O)N=C(N2CCN(Cc3ccccc3)CC2)c2ccccc21	i
CCc1nn(C(C)C(=O)NCCN2CCN(c3cccc(C)c3C)CC2)c(=O)c2cc3occc3n12 (stereo unspecified)	0.4
COc1cc2cc(CN(CCCO)S(=O)(=O)c3ccccc3)c(=O)[nH]c2cc1OC	i
O=C(CN(c1ccccc1)S(=O)(=O)c1ccc(Cl)cc1)Nc1ccccc1C(=O)N1CCCC1	i
CC(C)c1nc(SCC(=O)N2CCCC2)c2ccccc2n1	0.7
O=C(Nc1ccncc1)C1COc2ccccc2O1 (stereo unspecified)	0.0
COc1ccc(-c2cc(C(F)(F)F)nc(N3CCN(Cc4ccccc4)CC3)n2)cc1OC	i
CC(C)NC(=O)CSc1nc(Cc2cccs2)nc2ccccc12	i
Cc1ccc(CCC(=O)Nc2ccc(S(N)(=O)=O)cc2)o1	1.4
Nc1nonc1C(=O)NC(c1ccccc1)c1ccccc1	i
CCn1c2ccccc2c2cc(NC(=O)CSc3nnc(C4CC4)n3Cc3ccco3)ccc21	i
O=C(Nc1ccccc1C(F)(F)F)N1CCCCCC1	1.8
O=c1c2ccccc2nc(-c2ccco2)n1-c1nc2ccccc2s1	i
O=P(c1ccccc1)(c1ccccc1)C(O)c1ccncc1 (stereo unspecified)	0.3
Cc1ccccc1C(=O)N1CCC(C(=O)Nc2ccc(S(=O)(=O)N(C)C(C)C)cc2)CC1	i
CCC(=O)Nc1cc(C)c(NC(=O)c2ccccc2OC)cn1	0.3
C=CCNC(=O)N[C@@H](CCSC)C(=O)OC	0.8
CSc1cccc(NS(=O)(=O)c2ccc(F)cc2)c1	3.0
CC(C)(C)NC(=O)c1cccc(NC(=O)c2cccc(O)c2)c1	2.0
COc1ccc(C(=O)c2ccc(N3CCN(C(=O)c4ccc(F)cc4)CC3)c(F)c2)cc1Br	0.4
Cc1cc(Oc2ccccc2)nc(SCC(=O)Nc2ccc(Cl)c(Cl)c2)n1	i
Cc1ccc(S(=O)(=O)CC(=O)N2CCCCCC2)cc1	i
CC(NC(=O)Nc1ccccc1)c1ccccc1 (stereo unspecified)	i
O=C(Nc1ccncc1)C1c2ccccc2Oc2ccccc21	0.8
O=C(c1ccccc1F)N1CCN=C1SCc1cccnc1	4.1
CCc1nnc(NC(=O)CSc2nnc(-c3c[nH]c4ccccc34)n2C)s1	0.9
Cc1ccc(S(=O)(=O)NC(=O)NCc2ccc3c(c2)OCO3)cc1	1.2
O=C(COc1ccccc1)N(Cc1ccco1)c1ccc(O)cc1	2.6
Cc1ccc2c(c1)nnn2C1CCN(S(=O)(=O)c2ccc(C(=O)N3CC(C)CC(C)C3)cc2)CC1 (stereo unspecified)	0.5
Cc1ccc2occ(/C=C/C(=O)c3ccccc3O)c(=O)c2c1	i
CCc1nn2c(=O)cc(CSc3nc(C)cc(=O)[nH]3)nc2s1	1.1
CC(C)c1cc(C(=O)O)n(-c2ccccc2)n1	0.1
Cc1cc(C(F)(F)F)c(C#N)c(N2CCOCC2)n1	i
O=c1c[n+]([O-])c2ccccc2n1OCc1c(F)cccc1F	0.7
Cc1ccccc1N(CC(=O)NCCc1ccccc1)C(=O)c1ccc(N2CCCC2)nc1	i
COc1ccc(OC)c(NC(=O)c2ccc(CN(c3cc(Cl)ccc3C)S(=O)(=O)c3ccccc3)cc2)c1	1.2

(further entries)
Structure	H5N1 CPE
O=C(O)CC(CC(=O)Nc1nncs1)c1ccccc1 (stereo unspecified)	0.4
CCOC(=O)CSc1nc(Nc2ccc3c(c2)OCO3)c2ccccc2n1	0.6
CSc1nc2ccccc2n1C(=O)Oc1ccccc1	i
Cc1cc(C(=O)NCCCn2ccnc2)cs1	0.7
Cc1cc(C)c(NC(=O)CSc2nc3c(c(=O)n2C)SC(C)C3)c(C)c1 (stereo unspecified)	1.8
Cc1cc(C)cc(NC(=O)CSc2nnc(-c3ccccc3)n2N)c1	i
CC1(C)Cc2c(C#N)c(NCC3CCCO3)nc(-c3ccco3)c2CO1 (stereo unspecified)	1.0
Cc1ccsc1/C=N/n1c(-c2cccnc2)n[nH]c1=S	i
CCOc1cc(NC(=S)NCC2CCCO2)c(OCC)cc1NC(=O)c1cccc(C)c1 (stereo unspecified)	0.7
COc1ccc(C(=O)NCC(=O)OCC(=O)N2CC(C)CC(C)C2)cc1 (stereo unspecified)	i
O=C(CSc1cnc2ccccc2n1)NC1CCCC1	i
O=C(NC(Oc1ccccc1)C(Cl)(Cl)Cl)c1ccccc1 (stereo unspecified)	i
O=C(O)CC(=O)Nc1cc(Cl)ccc1O	1.2
C=CCN(C(=O)CN1CCOCC1)c1nc(C)c(-c2ccccc2)s1	0.1
O=C(CN1C(=O)c2ccccc2S1(=O)=O)NCc1ccccn1	i
NC(=O)C1(c2ccccc2)CCOCC1	i
C(=N\n1cnnc1)/c1cccc(OCCOc2ccccc2)c1	1.4
Cc1cc(OCC(=O)Nn2cnnc2)c(C)cc1Br	i
NC(=O)c1ccccc1NS(=O)(=O)c1ccc2c(c1)OCCO2	i
COc1ccc(CC(NC(C)=O)C(=O)NC2CCN(C(=O)Nc3ccccc3Cl)CC2)cc1OC (stereo unspecified)	i
CCC(CC)NC(=O)Cc1ccc(S(=O)(=O)N2CCOCC2)s1	i
CC(NS(=O)(=O)c1ccccc1)C(N)=O (stereo unspecified)	i
COc1ccc(CC(NC(C)=O)C(=O)N2CCN(C(=O)N(C(C)C)C(C)C)CC2)cc1 (stereo unspecified)	0.2
Cc1cc(C)c(NC(=O)CSc2nnc(SCC(=O)Nc3c(C)cc(C)cc3C)n2N)c(C)c1	i
COc1ccc(NC(=O)CNS(=O)(=O)c2ccc3nc(C)sc3c2)c(OC)c1	1.4

An excerpt of these results, with each value named.
O=C(Nc1ccncc1)C1c2ccccc2Oc2ccccc21
- H5N1 CPE: 0.8

O=C(c1ccccc1F)N1CCN=C1SCc1cccnc1
- H5N1 CPE: 4.1

CCc1nnc(NC(=O)CSc2nnc(-c3c[nH]c4ccccc34)n2C)s1
- H5N1 CPE: 0.9

Carrying on.
Structure	H5N1 CPE
CCN(CC)C(=O)COn1c(SCC(=O)N(CC)CC)nc2ccccc2c1=O	i
CCOc1ccc(C)cc1S(=O)(=O)n1ccc(C)n1	0.9
COc1cc(C)c(S(=O)(=O)n2ccc(C)n2)cc1C	0.1
Cn1ncc2c(Nc3cccc4ccccc34)ncnc21	5.5
COc1ccc(OC)c(NC(=O)C23CCC(C)(C(=O)O2)C3(C)C)c1 (stereo unspecified)	i
O=C(NC1CCCCC1)c1ccc(S(=O)(=O)NCc2cccnc2)cc1	0.7
Brc1cccc(-c2cnc3n2CCCCC3)c1	2.4
O=C(O)/C=C\C(=O)Nc1ccccc1C#Cc1ccc(Br)cc1	i
CC(=O)c1ccc(N2CCN(C(=S)Nc3cccc(F)c3)CC2)cc1	i
COc1ccc(-n2c(SCC(=O)Nc3nccs3)nc3c(c2=O)SC(C)C3)cc1 (stereo unspecified)	i
COc1ccc(S(=O)(=O)N2CCN(c3ccccn3)CC2)cc1OC	i
CSc1nnc(-c2cccs2)n1-c1ccccc1	0.9
COCCCNC(=O)c1ccc2c(c1)OCO2	i
O=C1C2C3C=CC(C3)C2C(=O)N1/N=C/c1cn(Cc2ccc(F)cc2)c2ccccc12 (stereo unspecified)	i
CS(=O)(=O)c1ccccc1-c1nc(-c2ccc(C(F)(F)F)cc2)no1	0.3
O=C(O)c1ccccc1C(=O)Nc1ccccn1	0.1
O=C(O)c1cccc(CSc2nc(-c3ccc(Cl)cc3)cc(C(F)(F)F)n2)c1	i
Cc1ccccc1CN1CCNC1=O	0.3
CCCc1nc2c(C)cc(C)cc2c(N)c1CC	0.4
CCOC(=O)C1CCN(Cc2ccc(O)c3ncccc23)CC1	i
Cn1c(SCc2ccc(Cl)cc2Cl)nc(C(F)(F)F)cc1=O	i
COc1ccc(CCN(C(=O)C(F)(F)F)C(C(=O)NC2CCCCC2)c2ccc(C)s2)cc1OC (stereo unspecified)	0.3
COC(=O)C(C)Sc1nc2c(cnn2-c2ccc(C)cc2)c(=O)[nH]1 (stereo unspecified)	2.5
COc1ccc(CCNC(=O)c2cc(-c3ccc4c(c3)OCO4)on2)cc1OC	i
O=C(Nc1nnc(-c2ccccc2Cl)o1)c1ccc(S(=O)(=O)N2CCCCCC2)cc1	i

Rewritten with each value named: 2 of the compounds above.
SMILES: CC(NS(=O)(=O)c1ccccc1)C(N)=O (stereo unspecified)
  H5N1 CPE: i

SMILES: COc1ccc(CC(NC(C)=O)C(=O)N2CCN(C(=O)N(C(C)C)C(C)C)CC2)cc1 (stereo unspecified)
  H5N1 CPE: 0.2

Retrieved one by one from the entries so far (3):
Structure	H5N1 CPE
O=C(Nc1nnc(-c2ccccc2Cl)o1)c1ccc(S(=O)(=O)N2CCCCCC2)cc1	i
COc1ccc(OC)c(NC(=O)C23CCC(C)(C(=O)O2)C3(C)C)c1 (stereo unspecified)	i
COc1ccc(-n2c(SCC(=O)Nc3nccs3)nc3c(c2=O)SC(C)C3)cc1 (stereo unspecified)	i

More compounds follow:
| canonical_smiles | H5N1 CPE |
| --- | --- |
| COc1ncccc1C(=O)NCC(CC(=O)O)c1ccccc1 (stereo unspecified) | 0.1 |
| CCOC(=O)C1CCN(S(=O)(=O)c2ccc3c4c(cccc24)C(=O)N3)CC1 | 1.4 |
| CN1C(=O)CC(N2CCN(CC(=O)N3CCCC3)CC2)C1=O (stereo unspecified) | i |
| Cc1cc(NC(=O)c2ccc3c(c2)OCO3)no1 | i |
| CC12CC(NC(=O)N1c1cccc(C(=O)N3CCN(c4ccccc4F)CC3)c1)c1ccccc1O2 (stereo unspecified) | 1.0 |
| CCCc1nnc(NC(=O)CCN2C(=O)c3ccccc3C2=O)s1 | 1.2 |
| Cn1nnnc1SCCNCc1ccc(Cl)cc1 | i |
| COc1ccc(-n2c(SCC(N)=O)nnc2-c2ccc(NS(=O)(=O)c3ccc(C)cc3)cc2)cc1 | i |
| CCOc1ccc(S(=O)(=O)Nc2ccc(S(=O)(=O)N3CCCC3)cc2)cc1 | 1.0 |
| Cc1sc(/N=C/c2ccccc2O)c(C#N)c1C | i |
| CCCCn1c(-c2ccccc2)cnc1SCC(=O)NCCc1ccc(OC)c(OC)c1 | 0.2 |
| CCc1nc(N(CC)CC)c2oc3ccccc3c2n1 | 3.3 |
| O=C(CSc1ccc2nnc(-c3ccc(F)cc3)n2n1)NCC1CCCO1 (stereo unspecified) | i |
| Cc1ccsc1C1C2=C(CC(C)(C)CC2=O)Nc2ncnn21 (stereo unspecified) | 1.0 |
| Cc1cccc(C)c1NC(=O)CSc1nnc(-c2ccco2)n1N | 0.1 |
| Cc1cc(C(=O)N(C2CCCCC2)C2CCCCC2)no1 | 0.2 |
| O=C(CCS(=O)(=O)c1ccc(Br)s1)NC1CCCC1 | i |
| Cc1cccc(NC(=O)CN(C)S(=O)(=O)c2cnc[nH]2)c1 | 0.3 |
| O=C1c2ccccc2C(Nc2ccccc2)N1c1ccc(Cl)cn1 (stereo unspecified) | 3.1 |
| Cc1ccc(CNCC2CCCO2)s1 (stereo unspecified) | 1.4 |

Next section, overlapping the part above by five compounds.
| canonical_smiles | H5N1 CPE |
| --- | --- |
| Cc1cc(C(=O)N(C2CCCCC2)C2CCCCC2)no1 | 0.2 |
| O=C(CCS(=O)(=O)c1ccc(Br)s1)NC1CCCC1 | i |
| Cc1cccc(NC(=O)CN(C)S(=O)(=O)c2cnc[nH]2)c1 | 0.3 |
| O=C1c2ccccc2C(Nc2ccccc2)N1c1ccc(Cl)cn1 (stereo unspecified) | 3.1 |
| Cc1ccc(CNCC2CCCO2)s1 (stereo unspecified) | 1.4 |
| Cn1c(SCC(=O)NCc2ccc3c(c2)OCO3)nnc1-c1cc2ccccc2cc1O | i |
| CCOc1ccc(CC(=O)Nc2c(C(N)=O)oc3ccc(Br)cc23)cc1OCC | i |
| O=C(Oc1ccc(Br)cc1)C1CC(=O)N(c2ccc(F)cc2)C1 (stereo unspecified) | i |
| CCOC(=O)Cc1nnc(NC(=O)C(CC)Sc2nc(C)cc(C)n2)s1 (stereo unspecified) | 0.6 |
| CCOc1ccccc1C(=O)Nc1cc(OC)ccc1OC | 1.2 |
| CCc1c(C)sc(NC(=O)CSc2nc3c(c(C(F)(F)F)n2)CCc2ccccc2-3)c1C#N | i |
| CCn1c(C)nc2cc(C(=O)NNS(=O)(=O)c3ccc(C)cc3C)ccc21 | i |
| CCCCn1c(CNC(=O)C23CC4CC(CC(C4)C2)C3)nnc1SCC(=O)Nc1nnc(C)s1 | 1.4 |
| N#Cc1nc(Cc2ccccc2)oc1N1CCC(Cc2ccccc2)CC1 | 2.3 |
| COc1cc(S(=O)(=O)N(Cc2ccc(C)cc2)Cc2ccco2)ccc1-n1cnnn1 | i |
| COc1cc(NC(=O)c2ccccc2)c(OC)cc1NC(=O)CN1CCN(c2ccccn2)CC1 | i |
| COc1ccccc1-c1nnc2n1N=C(C)CS2 | 1.1 |
| CCOC(=O)C1=C(CC)Nc2ccccc2N=C1NC(=O)Nc1ccccc1OC | i |
| COc1cccc(C2=NOC(C(=O)NCc3cccs3)C2)c1 (stereo unspecified) | i |
| Cc1ccc([N+](=O)[O-])cc1NC(=O)CN1CCCCC1 | 3.2 |
| N/C(Cc1ccc([N+](=O)[O-])cc1)=N\OC(=O)COc1ccc2ccccc2c1 | i |

An excerpt (hit frequency here may not be typical).
